Screens as filed in PubChem.
Yeast UUG start – yeast start codon fidelity modulation; 0.13% of 350,000 active; activity score, % at 18.7 µM; S. cerevisiae UUG-firefly luciferase reporter, luminescence/redox ratio;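 active = replicate mean at a twofold rise or more, about +100% in these data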;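 note: firefly luciferase made from a UUG start codon reports start codon fidelity; reporter light over untreated wells divided by growth signal over untreated wells; some hits fall short of that in this replicate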
MT1-MMP act inh – inhibitors of human MT1-MMP activation | P50281 | AID 651647 | HT1080 RFP-PRO-GFP cells, GFP/RFP ratio fluorescence, overnight; percent of plate control window, DMSO zero | GFP/RFP ratio change, % at 20 µM | 0.061% of 360,000 active;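 active = GFP/RFP ratio change of at least 30% with cell ATP level not reduced by more than half and red fluorescence within 50% of control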; note: strong numbers were not always called active
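Assay system – RFP-PRO-GFP reporter HT1080 cells · Compound dosing – single dose of 20 µM compound, 1% DMSO final · Incubation – overnight compound exposure at 37 °C · Measure – GFP/RFP fluorescence ratio · Benchmarks – DMSO wells and RFP-L50D-GFP cells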
eIF4H inh – inhibitors of RNA binding by human eIF4H | 0.94% of 290,000 active | eIF4H fluorescence polarization binding assay | AID 2012 | inhibition, % at 35 µM | Q15056;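 active = 50% or more with normal probe brightness, or confirmed in later tests; inconclusive = above 50% with abnormal brightness, or retests that disagree; inactive = below 50% or failed in later tests; about a fifth of its hits are not listed in these tables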;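 note: calls also rest on retests at 20 µM and on dose response follow-up; 0% = protein and probe with vehicle and 100% = probe without protein; strong numbers were not always called active; many hits fall short of the cut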
PABP FP inh – PABP-poly(A) binding inhibition; PABP-poly(A) RNA binding, fluorescence polarization; inhibition, % at 35 µM; 1% of 290,000 active; AID 2014;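 active = 50% or more with normal probe brightness, or confirmed in later tests; inconclusive = above 50% with abnormal brightness, or retests that disagree; inactive = below 50% or failed in later tests; about a fifth of its hits are not listed in these tables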;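 note: calls also rest on retests at 20 µM and on dose response follow-up; controls were probe without protein and protein plus probe with vehicle; some compounds called inactive have numbers as strong as hits; many hits fall short of the cut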
Env fusion inh – blocks HIV Env-driven cell-cell fusion | HeLa-JRFL Env/CEM21 cell fusion, luciferase | inhibition, % at 12.3 µM | 1.1% of 360,000 active | AID 651610;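 active = mean replicate inhibition score of at least 50 and every replicate individually at or above 50; inconclusive = only one of the two criteria met; inactive = mean below 50 and not all replicates reaching 50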;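 note: 0% = plate neutral controls and 100% = maraviroc near 300 nM; one replicate is shown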
Rce1 inh – blocks yeast Ras-converting enzyme. 0.27% of 290,000 active. Q03530. calls only. yeast membranes, quenched prenylated peptide cleavage fluorescence;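 active = fall in fluorescence gain of 50% or more versus controls, with final raw signal at or below 3038400; inconclusive = same 50% fall but final raw signal above 3038400; inactive = fall in fluorescence gain under 50%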;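 note: plate controls were neutral control wells for no effect and wells lacking membranes for full effect; tested at 10 µM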
Target sequence (Q03530 whole entry, looked up): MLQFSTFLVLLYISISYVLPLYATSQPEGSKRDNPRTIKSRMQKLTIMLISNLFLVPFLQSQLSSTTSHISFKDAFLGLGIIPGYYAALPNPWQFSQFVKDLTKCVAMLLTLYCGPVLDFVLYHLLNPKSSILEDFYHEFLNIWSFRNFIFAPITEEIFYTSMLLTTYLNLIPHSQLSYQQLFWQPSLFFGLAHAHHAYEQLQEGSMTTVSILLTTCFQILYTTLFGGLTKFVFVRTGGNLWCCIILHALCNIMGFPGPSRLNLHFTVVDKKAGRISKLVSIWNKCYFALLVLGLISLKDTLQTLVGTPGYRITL
CSC inhib – blocks cancer stem cells. cancer stem cell-like cells viability, luminescence. inhibition, % at 7.5 µM. 1.1% of 300,000 active. AID 2717;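 active = mean at 75% or more and at least half the replicates too; inconclusive = mean and replicates disagree; tested in HMLE shEcad cells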;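 note: 0% = median of negative and 100% = median of positive control wells; the first replicate is given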
MT1-MMP act inh RFP – recorded beside MT1-MMP act inh, whose call it bears; RFP signal change, %; measured here: RFP expression control read;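 0 = vehicle wells; hits needed this value within 50% of zero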
* marks the source's active call; other numbers are inactive results; i = inactive; ? = inconclusive; . = not tested or not shown; [ ] = another dose, or the depositor's remark. These rows are one share of the data. The share of hits here may be higher or lower than overall.

Values run as follows: Yeast UUG start, MT1-MMP act inh, MT1-MMP act inh RFP, eIF4H inh, PABP FP inh, Env fusion inh, Rce1 inh, CSC inhib
> N#C/C(=C/c1cccnc1)c1ccccc1
 : -15, -2, -4, 0, 4, -14, i, 27
> O=C(COc1c(Cl)cc(Cl)cc1Cl)c1ccc(Cl)cc1
 : -10, -1, 1, -2, -6, 11, i, 8
> Cc1cc(C(=O)NN)c(C)o1
 : ., 1, 4, -4, 21, 29, i, 3
> COc1ccc(CC(N)c2csc(NC(=O)Nc3ccccc3-c3ccccc3)n2)cc1 (configuration not stated)
 : -9, -10, -10, ., ., 4, ., .
> CCOc1ccccc1/C=C(\C(=O)O)c1ccc(S(=O)(=O)N2CCCCC2)s1
 : 9, 2, 0, ., ., 5, ., 3
> Cc1ccc(N/N=C/c2ccc(N3CCOCC3)cc2)cc1C
 : -1, -6, -2, -5, -4, ., i, -3
> CCCCNc1nc2ccccc2nc1NS(=O)(=O)c1cccs1
 : ., 2, 0, -4, 16, ., i, 3
> Cn1cc([N+](=O)[O-])c(C(=O)NCc2cc3cc(Cl)ccc3[nH]2)n1
 : ., 7, 1, 2, -2, 11, i, -3
> CC1CCc2c(C(=O)Nc3nccs3)csc2C1 (configuration not stated)
 : -25, -8, -1, 7, 0, -95, i, 21
> CC1CCCCC12NC(=O)N(CC(=O)Nc1ccc(N3CCCCC3)cc1)C2=O (configuration not stated)
 : -1, 0, 2, ., ., -13, ., .

Retrieved one by one from the list above:
Values run as follows: Yeast UUG start, MT1-MMP act inh, MT1-MMP act inh RFP, eIF4H inh, PABP FP inh, Env fusion inh, Rce1 inh, CSC inhib
> Cn1cc([N+](=O)[O-])c(C(=O)NCc2cc3cc(Cl)ccc3[nH]2)n1
 : ., 7, 1, 2, -2, 11, i, -3
> Cc1cc(C(=O)NN)c(C)o1
 : ., 1, 4, -4, 21, 29, i, 3
> CCOc1ccccc1/C=C(\C(=O)O)c1ccc(S(=O)(=O)N2CCCCC2)s1
 : 9, 2, 0, ., ., 5, ., 3
> O=C(COc1c(Cl)cc(Cl)cc1Cl)c1ccc(Cl)cc1
 : -10, -1, 1, -2, -6, 11, i, 8
> CC1CCc2c(C(=O)Nc3nccs3)csc2C1 (configuration not stated)
 : -25, -8, -1, 7, 0, -95, i, 21
> CC1CCCCC12NC(=O)N(CC(=O)Nc1ccc(N3CCCCC3)cc1)C2=O (configuration not stated)
 : -1, 0, 2, ., ., -13, ., .

Next section:
Values run as follows: Yeast UUG start, MT1-MMP act inh, MT1-MMP act inh RFP, eIF4H inh, PABP FP inh, Env fusion inh, Rce1 inh, CSC inhib
> CCCCNC(=O)C1(C)CCN1C(=O)CSc1ccccc1 (configuration not stated)
 : -8, 2, -1, ., ., 1, ., .
> O=[N+]([O-])c1ccc(C=Nc2ccccc2)cc1
 : -17, 5, 7, ., ., 5, ., .
> O=C(COC(=O)C1C2CC3OC(=O)C1C3C2)Nc1ccc(Cl)cc1 (configuration not stated)
 : 0, -1, 3, -2, -8, 14, i, -3
> CCCc1ccc(OCc2nc(-c3ccc(NC(=O)c4ccco4)cc3)no2)cc1
 : -4, -2, -3, 2, 6, -49, i, 25
> O=C(CCNS(=O)(=O)c1ccccc1)OCc1nc2ccsc2c(=O)[nH]1
 : ., 2, 5, ., ., -8, i, -7
> COc1ccc(C(=O)N2CCC(CCC(=O)Nc3cccc(C)c3)CC2)cc1
 : -1, 3, 1, -4, 11, 2, i, -5
> Cc1cc(NC(=O)CCN2CCN(CCO)CC2)ccc1Br
 : -5, -1, 2, -26, 5, 5, i, -10
> O=C(CCCSc1nnc(SCCCC(=O)c2ccc(F)cc2)s1)c1ccc(F)cc1
 : -15, 5, -13, -17, -2, 60*, i, 5
> CCCCCOC(=O)Nc1ccc(S(=O)(=O)Nc2cccc([N+](=O)[O-])c2)cc1
 : 6, -3, -20, 4, 4, ., i, 33
> COc1ccc(OC)c(NC(=O)COC(=O)c2nc(Cl)ccc2Cl)c1
 : ., 0, 7, 13, 10, -14, i, -4

(next part)
Values run as follows: Yeast UUG start, MT1-MMP act inh, MT1-MMP act inh RFP, eIF4H inh, PABP FP inh, Env fusion inh, Rce1 inh, CSC inhib
> Cc1cccc(NC(=O)CNC(=O)CN2C(=O)NC3(CCCc4ccccc43)C2=O)c1C (configuration not stated)
 : -8, 3, 0, ., ., -14, i, -11
> CCOc1cc(/C=C2\C(=O)N(CCC#N)N=C2C)ccc1OCC(N)=O
 : ., 2, 2, -9, -11, 11, i, 8
> Cc1ccc(Sc2nc([N+](=O)[O-])nn2C)cc1
 : -22, 1, 2, 0, -4, -6, i, -12
> COc1ccc2sc(-c3ccccc3OC)c(-c3ccc(OC)c(F)c3)c2c1
 : 14, 0, 4, ., ., -10, ., -19
> CCN(CC)CCOCCOc1ccc(Cl)c2ccccc12
 : ., 2, 0, 5, -8, 9, i, 74
> Cc1c(/C=N\NC(=O)c2c[nH]c3ccccc23)cnn1C
 : ., 0, 4, -2, -6, -21, i, .
> COC(=O)c1[nH]c2ccccc2c1CN1CCOCC1
 : 1, -3, 3, 3, 0, 11, i, -3
> CCc1ccc(C2C(C#N)=C(N)N(N(C)C)C3=C2C(=O)CCC3)cc1 (configuration not stated)
 : -8, 0, 2, 4, 2, -6, i, -13
> CCc1nc2ccc(C(=O)NCCOc3ccc(OC)cc3)cn2c1N(C)Cc1ccc(N(C)C)cc1
 : -10, 4, 1, ., ., -11, ., .
> O=C(CSc1nc2sc3c(c2c(=O)[nH]1)CCC3)NCCO
 : 2, -1, 4, 0, -15, -13, i, 1

With a hit mark in Env fusion inh, of those listed so far:
Compound | Yeast UUG start | MT1-MMP act inh | MT1-MMP act inh RFP | Env fusion inh | Rce1 inh
O=C(CCCSc1nnc(SCCCC(=O)c2ccc(F)cc2)s1)c1ccc(F)cc1 | -15 | 5 | -13 | 60* | i

Further structures:
Values run as follows: Yeast UUG start, MT1-MMP act inh, MT1-MMP act inh RFP, eIF4H inh, PABP FP inh, Env fusion inh, Rce1 inh, CSC inhib
> CCN1C(=O)c2n[nH]c(C(=O)OC)c2C1=O
 : 3, -2, -1, -13, 2, ., i, -14
> CSc1ccccc1NC(=O)Cn1nc([N+](=O)[O-])c(Cl)c1C
 : ., 1, 5, 0, 4, -20, i, -4
> COc1cc(/C=N/NC(=O)c2cc[n+]([O-])cc2)cc(OC)c1OC
 : -2, -3, 5, -5, 1, -14, i, -2
> Cc1cc(C)cc(N(C(=O)CCC(=O)Nc2cc(C)on2)C(C(=O)NC2CCCC2)c2ccco2)c1 (configuration not stated)
 : ., -6, -7, -5, 5, 19, i, 8
> O=C1/C(=C/c2ccccc2)SC(=S)N1N1C(=O)C2CC2C1=O (configuration not stated)
 : ., 4, 2, 2, 1, 21, i, 4
> CCC(=O)NNC(=O)c1c(O)c2ccccc2[nH]c1=O
 : -12, 2, 4, -4, -11, -10, i, -1
> NNc1nc(-c2ccccc2)nc(-c2ccccc2)c1Br
 : -19, -4, 6, ., ., 0, i, 11
> CCCn1c(N2CCN(C(=O)Nc3ccc(Cl)cc3)CC2)nc2ccccc21
 : 7, 1, -5, -14, -1, 0, i, 19
> O=C(Cn1c2ccc(F)cc2c2nc3n(c(=O)c21)CCS3)Nc1ccc(Cl)cc1F
 : -10, 0, -5, -16, 6, 15, i, -6
> CCOCCN(C(=O)c1ccccc1Cl)c1cccc(C)c1C
 : -8, -1, 0, -11, -14, -8, i, -2

As a working copy, 2 of the compounds above:
Values run as follows: Yeast UUG start, MT1-MMP act inh, MT1-MMP act inh RFP, eIF4H inh, PABP FP inh, Env fusion inh, Rce1 inh, CSC inhib
> CCN1C(=O)c2n[nH]c(C(=O)OC)c2C1=O
 : 3, -2, -1, -13, 2, ., i, -14
> CSc1ccccc1NC(=O)Cn1nc([N+](=O)[O-])c(Cl)c1C
 : ., 1, 5, 0, 4, -20, i, -4

(listing goes on)
Values run as follows: Yeast UUG start, MT1-MMP act inh, MT1-MMP act inh RFP, eIF4H inh, PABP FP inh, Env fusion inh, Rce1 inh, CSC inhib
> COc1ccc(-c2cc(C(=O)N3CCN(c4ccccc4)CC3)no2)cc1OC
 : 7, 6, 4, 9, -4, -33, i, 3
> O=C(c1ccccc1F)N1CCN(C(=O)C(c2ccccc2)c2ccccc2)CC1
 : -1, -2, -1, -13, -2, 8, ., -8
> O=C(C[n+]1cc(Br)cc2ccccc21)c1ccc(Cl)cc1
 : -7, -10, 6, ?, ?, -21, i, 0
> COC(=O)C[C@@H]1C=C[C@H](NC(=O)c2ccccc2)[C@@H](CO)O1
 : -14, 1, 1, ., ., -21[16.7 µM], ., .
> O=C(Nc1ccc(-c2csc(Nc3ccccc3)n2)cc1)c1ccccc1
 : -10, 7, -8, -2, -9, -17, i, 16
> COc1ccccc1NC(=O)C(C)OC(=O)c1ccc(-n2cnnn2)cc1 (configuration not stated)
 : -20, 5, 3, ., ., 3, i, -10
> O=C(OCC(=O)N1CCC(Cc2ccccc2)CC1)c1ccccc1F
 : -18, 2, 3, ., ., ., ., -7
> COCCn1c(N)c(N(Cc2ccccc2)C(=O)c2ccc3ccccc3c2)c(=O)[nH]c1=O
 : -6, 0, 2, 8, 0, 1, i, -3
> O=C1CCCC(=O)C1=C1SCCS1
 : -13, -3, 3, 0, 9, -6, i, -3
> O=C(c1cc([N+](=O)[O-])ccc1N1CCOCC1)N1CCN(S(=O)(=O)c2ccc(F)cc2)CC1
 : 5, 5, 3, ., ., 1, i, -12
